TRPML1 agonist = qHTS for Agonists of the Human Mucolipin Transient Receptor Potential 1 (TRPML1); TRPML1-expressing cells, Ca2+ dye fluorescence, FDSS; host cell line not named in the record; reference of the full effect not given here; activation, % (concentration not given with the values); actives 0.12% (n = 410,000); AID 624414, 2012; in the data active = activation above about 50%; inconclusive = about 30% to 50%; inactive = below about 30%; note: 0% is about no effect; the text of the record puts the active cut at 80%
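Calcium fluorescence on an FDSS kinetic reader gave the read-out. Tet-induced TRPML1-DL cells were plated overnight, dye-loaded (Ca8 with quencher, 45-90 min, room temperature, dark), then read 110 s after compound addition, and again 110 s after 4uM final 54-4 (EC80).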
TRPV1 potentiator = HTS Assay for Compounds that Act as Potentiators of the Vanilloid Receptor 1; Transient receptor potential cation channel subfamily V member 1 (Homo sapiens), Q8NER1; TRPV1-expressing cells, Fluo-8 calcium influx, capsaicin EC20 potentiation; host cell line not named in the record; control for the full effect not named in the record; potentiation, % at 8.33 µM; actives 0.02% (n = 320,000); active means potentiation above 80%; inconclusive means 30% to 80%; inactive means below 30%; note: 0% is about no effect
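Fluo-8 calcium influx in TRPV1-expressing cells, kinetic read (ex 480/em 520 nm). Compound added and read 3 min for agonist activity, followed by capsaicin at EC20 final and 2 min further read for enhancement.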
TRPML1 inh = qHTS for Inhibitors of the Human Mucolipin Transient Receptor Potential 1 (TRPML1) | activity change, negative = inhibition, % (test concentration not listed) | AID 624415, 2012 | Mucolipin-1 (Homo sapiens), Q9GZU1 | actives 0.02% (n = 390,000) | TRPML1-inducible cells, Ca2+ dye fluorescence, FDSS; stronger effect = lower value; inhibition of EC80 agonist-evoked calcium signal; in the data active means activity change below about -50%; inconclusive means about -30% to -50%; inactive means above about -30%;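 note: stimulus is agonist 54-4 at its EC80 concentration; % is set by controls: 0 for no effect and ±100 for the full control effect; compound concentration not given in the record; the text of the record puts the active cut at -80%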
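Tet-induced TRPML1-DL cells loaded with Ca8 no-wash calcium dye were read kinetically on FDSS. Compound addition was followed by EC80 agonist 54-4 (4 uM final); inhibition was read over 110 s.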
Six1-Eya2 inh = qHTS Assay for Inhibitors of the Six1/Eya2 Interaction; Homeobox protein SIX1 (Homo sapiens) + Protein phosphatase EYA2 (Homo sapiens), …; AlphaScreen GST-Six1/His-Eya2 binding, biochemical; stronger effect = lower value; control for the full effect not named in the record; activity change, % (concentration not given with the values); actives 0.56% (n = 360,000); AID 651725, 2012; in the data active = activity change below about -65%; inconclusive = about -30% to -65%; inactive = above about -30%; note: % is set by controls: 0 for no effect and ±100 for the full control effect
Target sequence (O00167 whole entry, looked up): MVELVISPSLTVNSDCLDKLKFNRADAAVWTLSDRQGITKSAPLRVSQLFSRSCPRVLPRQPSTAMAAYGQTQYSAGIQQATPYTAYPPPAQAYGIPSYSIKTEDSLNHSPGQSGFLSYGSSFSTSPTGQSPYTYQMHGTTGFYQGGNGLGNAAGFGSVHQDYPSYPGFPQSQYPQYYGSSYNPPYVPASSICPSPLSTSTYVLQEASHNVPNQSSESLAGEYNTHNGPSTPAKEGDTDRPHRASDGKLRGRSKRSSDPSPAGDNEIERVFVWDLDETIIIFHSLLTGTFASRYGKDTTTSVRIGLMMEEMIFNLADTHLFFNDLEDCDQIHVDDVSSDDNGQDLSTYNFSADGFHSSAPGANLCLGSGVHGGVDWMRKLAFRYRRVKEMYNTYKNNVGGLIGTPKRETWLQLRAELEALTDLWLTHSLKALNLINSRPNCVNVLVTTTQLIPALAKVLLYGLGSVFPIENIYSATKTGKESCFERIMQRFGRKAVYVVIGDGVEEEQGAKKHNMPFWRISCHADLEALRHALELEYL
Target sequence (Q15475 whole entry, looked up): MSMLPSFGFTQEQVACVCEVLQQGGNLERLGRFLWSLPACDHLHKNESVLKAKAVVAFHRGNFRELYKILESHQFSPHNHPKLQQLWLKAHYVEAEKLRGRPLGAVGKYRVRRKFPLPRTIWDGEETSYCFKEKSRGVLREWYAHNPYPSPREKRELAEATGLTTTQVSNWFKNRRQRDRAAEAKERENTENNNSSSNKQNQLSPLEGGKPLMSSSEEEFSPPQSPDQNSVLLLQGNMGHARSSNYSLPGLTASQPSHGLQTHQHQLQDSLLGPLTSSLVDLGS
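GST-Six1 + His-Eya2 (5X stock: 250/500 nM); Tris pH 8.0, 300 mM NaCl, 0.05% BSA, 0.02% Tween 20; GSH donor/Ni acceptor beads; 1 h 37 °C dark; AlphaScreen readout.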
D2 potentiator = Beta-Arrestin HTS for Positive Allosteric Modulators of the Human D2 Dopamine Receptor: Potentiators; DiscoveRx D2 beta-arrestin cells, luminescence, 90 min; 100% = 57 uM dopamine signal; actives 0.23% (n = 360,000); potentiation, % (test concentration not listed); D(2) dopamine receptor (Homo sapiens), P14416; active = potentiation of 50% or more; inconclusive = 30% to 50%; inactive = 30% or less;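 note: compound concentration not given in the record; tested on top of an EC20 dose of dopamine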
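PathHunter beta-arrestin assay in DiscoveRx D2 cells. Compounds were added with an EC20 of dopamine (50 nM final) for 90 min at 37 deg C. Luminescence was read 1 h after detection reagent, with 57 uM dopamine as the EC100 control.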
CtBP-E1A blk = qHTS Assay for Inhibitors of the CtBP/E1A Interaction | actives 0.49% (n = 340,000) | AlphaScreen GST-E1A/His-CtBP binding, 1536-well; stronger effect = lower value; control for the full effect not named in the record | CtBP / adenovirus E1A interaction (AlphaScreen) | activity change, % (no concentration beside the values); in the data active means activity change below about -65%; inconclusive means about -30% to -65%; inactive means above about -30%; note: % is set by controls: 0 for no effect and ±100 for the full control effect; compound concentration not given in the record
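AlphaScreen with 125 nM GST-E1A and 125 nM His-CtBP (5X stocks) in Tris pH 8.0, 300 mM NaCl, BSA, Tween 20, TCEP. Compounds preincubated 2 h at 37 deg C, then glutathione donor/nickel acceptor beads added for 1 h at 37 deg C in dark.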
The depositor's hits bear a star; ? = inconclusive; . = no result given. Not a hit list; 0.95% or so of the library scored in one or more.

cpd	compound	TRPML1 agonist	TRPV1 potentiator	TRPML1 inh
1	CCCCN(CCCNC(=O)C1CCN(S(=O)(=O)N2CCOCC2)CC1)Cc1ccccc1	-0.7	-4	14
2	Cc1ccc(N2C(=O)C3CCC(C)(C2=O)C3(C)C)cc1C (stereo unspecified)	0.4	2	-15
3	C=C(C)c1cccc(C(C)(C)NC(=O)N2CCOCC2)c1	-0.2	-20	11
4	CCOc1ccc(NC(=O)C2CCN(S(=O)(=O)CC)CC2)cc1	0.3	2	-4
5	Cc1ccc(C(=O)CCC(=O)NCc2ccccc2)cc1	-0.9	-12	-8
6	N#CC(c1ccc(O)cc1)N1CCOCC1 (stereo unspecified)	1.3	8	-18
7	Cc1ccc(NC(=O)C(C)Sc2n[nH]c(CNc3ccccc3)n2)cc1 (stereo unspecified)	-0.1	14	9
8	O=C(Cc1ccc(NC2=NC3CS(=O)(=O)CC3S2)cc1)NCc1ccc(Cl)cc1 (stereo unspecified)	-0.4	-6	19
9	O=C(CSc1nnnn1C1CCCCC1)NCc1ccccc1	1.0	12	18
10	Nc1nc(SCCO)[nH]c(=O)c1NC(=O)c1ccccc1F	-0.7	5	-13

cpd	Six1-Eya2 inh	D2 potentiator	CtBP-E1A blk
1	5	-5	10
2	6	-1	-4
3	-1	-9	2
4	9	-4	4
5	7	-8	.
6	3	-10	-4
7	-16	-2	-22
8	-1	-2	-7
9	4	-4	5
10	9	6	0

Whole records, quoted from the list. Values in the order: TRPML1 agonist | TRPV1 potentiator | TRPML1 inh | Six1-Eya2 inh | D2 potentiator | CtBP-E1A blk
Shown for CCCCN(CCCNC(=O)C1CCN(S(=O)(=O)N2CCOCC2)CC1)Cc1ccccc1 : -0.7 | -4 | 14 | 5 | -5 | 10
Shown for Cc1ccc(NC(=O)C(C)Sc2n[nH]c(CNc3ccccc3)n2)cc1 (stereo unspecified) : -0.1 | 14 | 9 | -16 | -2 | -22
Shown for O=C(CSc1nnnn1C1CCCCC1)NCc1ccccc1 : 1.0 | 12 | 18 | 4 | -4 | 5
Shown for O=C(Cc1ccc(NC2=NC3CS(=O)(=O)CC3S2)cc1)NCc1ccc(Cl)cc1 (stereo unspecified) : -0.4 | -6 | 19 | -1 | -2 | -7

Next entries follow.
cpd	compound	TRPML1 agonist	TRPV1 potentiator	TRPML1 inh
11	C/C(=N\NC(=O)c1ccoc1C)c1ccccc1O	0.4	4	13
12	COc1ccc(-c2oc(NC(=O)CCl)c(C#N)c2-c2ccc(OC)cc2)cc1	0.5	15	2
13	CC(NC(=O)Cn1cc([N+](=O)[O-])cn1)c1ccc(C(C)(C)C)cc1 (stereo unspecified)	1.4	.	56
14	CCOc1ccc(-c2nc(N)ncc2Oc2ccc(OC)cc2)c(O)c1	2.3	11	9
15	CC1=NNC(=O)/C1=C\c1cn(-c2ccccc2)nc1-c1ccc(Cl)cc1	5.7	6	6
16	COC(=O)N1CCCCC1c1cc(C(=O)Nc2cccc3c2CCCC3)no1 (stereo unspecified)	0.5	.	.
17	COc1ccc(N2C(=O)CC(Sc3n[nH]c(-c4ccccc4)n3)C2=O)cc1 (stereo unspecified)	-0.2	12	46
18	COc1ncc(-c2cccc3nccn23)c(OC)n1	-0.5	.	24
19	Cc1cc(F)ccc1C(O)c1ncc(-c2cccc(F)c2)[nH]1 (stereo unspecified)	-0.2	.	-16
20	COc1cc(/C=N/NC(=O)C(Cc2c[nH]c3ccccc23)NC(=O)OCC(C)C)cc([N+](=O)[O-])c1O (stereo unspecified)	0.3	10	3

cpd	Six1-Eya2 inh	D2 potentiator	CtBP-E1A blk
11	1	-13	-26
12	-8	9	-2
13	27	-13	0
14	-13	-6	-10
15	6	9	14
16	2	4	1
17	0	-8	-1
18	21	1	15
19	-4	-14	-6
20	?	-13	0

Other structures follow:
cpd	compound	TRPML1 agonist	TRPV1 potentiator	TRPML1 inh
21	CCOC(=O)C1=C(COC(=O)c2cc(OC)c(OC)cc2[N+](=O)[O-])NC(=O)NC1C (stereo unspecified)	-0.5	1	6
22	COc1ccc(CCNC(=O)c2cccnc2)cc1OC	1.0	-8	-7
23	CCOC(=O)C1CCN(C(=O)c2cc3cc(F)ccc3[nH]2)CC1	-0.7	6	-4
24	COc1ccc2c(c1)CCc1c(C(=O)Nc3ccc(OC)c(OC)c3)noc1-2	1.2	-11	-4
25	O=C(CN(c1ccccc1)S(=O)(=O)c1ccc(F)cc1)NC1CCCCCC1	-0.6	-7	5
26	Cc1ccc(O)c(NC(=O)c2cc(-c3cccs3)on2)c1	-0.1	1	-5
27	Cc1csc(NC(=O)c2ccc(Cl)nc2)n1	-0.4	-2	-6
28	COc1ccc(N2CC(NS(=O)(=O)c3ccc4ccccc4c3)CC2=O)cc1OC (stereo unspecified)	0.8	-2	-2
29	O=C(N/N=C/c1ccc(OC(F)F)cc1)c1cccc(S(=O)(=O)N2CCOCC2)c1	0.5	-8	-1
30	CCOC(=O)c1c(-c2cccs2)csc1NC(=O)CN1CCOCC1	1.4	3	-4

cpd	Six1-Eya2 inh	D2 potentiator	CtBP-E1A blk
21	-1	7	-1
22	0	-1	8
23	-5	-3	4
24	-2	9	8
25	0	-17	26
26	0	10	-2
27	1	-6	5
28	-4	2	-1
29	0	-1	-3
30	-3	24	-4

Additional compounds follow:
cpd	compound	TRPML1 agonist	TRPV1 potentiator	TRPML1 inh
31	O=c1c2ccccc2nnn1Cc1ccc2ccccc2c1	3.1	-5	29
32	Cc1cccc(C(=O)C2CCN(S(=O)(=O)c3cccc(C(=O)O)c3)CC2)c1	-1.2	1	41
33	Cc1ccc(NC(=O)CN2CCN(C(=O)C3CCCO3)CC2)c(C)c1 (stereo unspecified)	1.1	0	9
34	CCOc1ccc(N(CC(=O)NC(C)(C)C)C(=O)CCC(=O)Nc2nccs2)cc1	0.9	20	5
35	Clc1ccccc1CSc1nnc(-c2ccncc2)o1	0.6	-16	-1
36	Cc1cccc(NC(=S)Nc2ccc(Cl)c(Cl)c2)c1	-0.3	-17	-19
37	Cc1ccccc1NC(=S)N(Cc1ccco1)C(C)c1cccs1 (stereo unspecified)	-0.9	7	2
38	COc1ccc(C2C(C(=O)c3cccs3)=C(O)C(=O)N2c2cccc(C)n2)cc1 (stereo unspecified)	1.9	26	30
39	COc1cc(NC(=O)CSc2nc(C)cs2)cc(OC)c1	1.1	0	4
40	CCN(C(=O)Cn1nc(C(=O)O)c2ccccc2c1=O)C1CCCCC1	2.4	5	24

cpd	Six1-Eya2 inh	D2 potentiator	CtBP-E1A blk
31	18	-2	20
32	3	-4	0
33	-3	-15	0
34	0	-5	0
35	3	-8	15
36	7	-3	2
37	-8	1	-2
38	3	-13	6
39	1	7	-3
40	3	-7	-7

New compounds follow
cpd	compound	TRPML1 agonist	TRPV1 potentiator	TRPML1 inh
41	CC(=O)Nc1ccc(S(=O)(=O)N2CCC(C(=O)NCCc3ccc(Cl)cc3)CC2)cc1	0.7	9	26
42	CCc1nc2ccc(C(=O)N3CCN(S(=O)(=O)CC)CC3)cn2c1N(C)C(=O)c1cccc(OC)c1	2.4	.	-12
43	O=C(NC1CCCCC1)C(c1ccccc1)N(Cc1ccco1)C(=O)Cn1cnc2ccccc21 (stereo unspecified)	2.1	12	11
44	O=C(NCCC1=CCCCC1)c1ccc(F)cc1	1.0	-11	16
45	CCCNC(=S)Nc1ccc(Cl)cc1Cl	-0.6	-10	?
46	O=C(Nc1ccc2nc3n(c(=O)c2c1)CCCCC3)C(=O)N1CCN(c2ccc(F)cc2)CC1	-0.2	13	10
47	O=C1c2ccccc2C(=O)N1CN(C(=O)COc1ccccc1)c1ccc(F)cc1	-0.4	0	8
48	O=C(Nc1nnc(C(F)(F)F)s1)c1c(F)cccc1F	0.2	12	-3
49	CCC1CCCCN1C(=O)COC(=O)COc1ccc(Br)cc1 (stereo unspecified)	-0.4	.	-8
50	CCN(CC)S(=O)(=O)c1ccc(/C=C/C(=O)OCC(=O)NC(=O)C2COc3ccccc3O2)cc1 (stereo unspecified)	1.0	.	11

cpd	Six1-Eya2 inh	D2 potentiator	CtBP-E1A blk
41	2	-4	0
42	12	-14	-30
43	-11	-17	-4
44	2	-20	-1
45	-5	-1	1
46	1	-10	0
47	-2	-7	3
48	8	0	.
49	-6	-6	-21
50	9	-12	3

Next results.
cpd	compound	TRPML1 agonist	TRPV1 potentiator	TRPML1 inh
51	O=C(NCCC1=CCCCC1)C1CCN(S(=O)(=O)c2ccccc2C(F)(F)F)CC1	0.1	1	-2
52	Cc1nnsc1C(=O)N1CCCC(Nc2ccc(F)c(F)c2)C1 (stereo unspecified)	0.2	-20	22
53	O=C(COC(=O)c1ccccn1)NCc1ccccc1Cl	0.3	3	-11
54	Cc1ccc(NC(=O)c2ccc(=O)[nH]n2)cc1C	1.0	0	-19
55	COc1ccccc1-c1cc(C(F)(F)F)nc(S(C)(=O)=O)n1	0.4	8	-5
56	Cc1cc(C)nc(SCC(=O)NNC(=O)c2ccccc2C)n1	-0.5	-7	24
57	N#CCC(=O)NC(=O)NCC1CC1	-0.4	2	15
58	CC(C)(C)C1CCC(=NNC(=O)C(=O)NCc2ccco2)CC1 (stereo unspecified)	-0.9	0	-5
59	COc1ccccc1Nc1nc(-c2cccnc2)cs1	-0.3	-8	7
60	COc1ccccc1NC=C1C(=O)OC2(CCCCC2)OC1=O	-0.5	-18	6

cpd	Six1-Eya2 inh	D2 potentiator	CtBP-E1A blk
51	4	-25	12
52	5	-22	1
53	2	-4	-8
54	-7	-3	4
55	20	-25	59
56	-4	-8	-11
57	-3	-2	-1
58	-5	-23	-10
59	12	-15	-4
60	7	-7	3

(continued)
cpd	compound	TRPML1 agonist	TRPV1 potentiator	TRPML1 inh
61	O=C(O)c1cc(-c2cccnc2)nc2ccc(Br)cc12	-0.2	8	7
62	C=CCSc1nnc(NC(=O)c2nc(SCC)ncc2Cl)s1	-0.6	0	-3
63	Fc1ccc(CNn2cnnc2SCc2ccc(F)cc2)cc1	-0.7	-1	0
64	N#C/C(=N\Nc1ccccc1Cl)C(=O)c1ccccc1	0.3	-4	12
65	Cn1cnc2c(=O)sc3ccccc3c21	0.7	.	17
66	COC(=O)c1ccc(Oc2ccc(S(=O)(=O)N3CCCCC3)cc2N)cc1	0.0	-8	-4
67	CC(=O)c1ccccc1NC(=O)COC(=O)C1COc2ccccc2O1 (stereo unspecified)	-0.4	.	20
68	COc1cc2c(cc1OC)[C@@H](Cc1ccc(OCCC#N)cc1)N(C)CC2	-0.4	-2	-4
69	Cc1ccc(NC(=O)CN(C)C(=O)c2ccccc2OCc2c(C)noc2C)cc1	-0.2	6	4

cpd	Six1-Eya2 inh	D2 potentiator	CtBP-E1A blk
61	18	-3	0
62	-2	-4	-2
63	24	-8	42
64	-4	-7	-4
65	-20	-6	-10
66	-11	-5	2
67	-6	-6	0
68	6	-4	-22
69	-3	1	4
